Bioassay records deposited in PubChem by several laboratories.
Arbovirus inh: blocks arbovirus infection | arbovirus infection cell-based antiviral screen | inhibition, % at 10 µM | 0.37% of 200,000 active | AID 1251;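 active = inhibition from about 30%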;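 also: bluetongue infection of BSR cells; cell survival read as ATP light after 72 h; 0% = infected wells without compound and 100% = uninfected wells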
Mtb bLac sens: beta-lactam sensitization of Mtb H37Rv; 0.27% of 330,000 active; inhibition, % at 25 µM; M. tuberculosis H37Rv growth with meropenem, percent inhibition; hits of this screen are not shown here;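 active = about 74% or more and at least 40 points above the plate without the antibiotic, then above 30% in a dose series; inconclusive = first-round hits that could not be retested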;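 also: growth measured after seven days incubation then overnight dye step; 0% = bacteria only wells and 100% = bacteria with antibiotic; twin plates without the antibiotic show which effects depend on it; some results filed as inactive read as strong as hits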
Mtb growth: M. tuberculosis H37Rv growth inhibitors, H37Rv strain (AID 1626); M. tuberculosis H37Rv growth inhibition; higher % means a stronger effect; one-dose inhibition, % at 10 µM; IC50 in µM for titrated hits; 0.95% of 220,000 active;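 active = confirmed in a dose series; inconclusive = inhibition above 80% but not taken into the dose series; inactive = below 80% or under 30% at every dose of the series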;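 also: bacteria incubated seven days before Alamar blue readout; 0% = bacteria only wells and 100% = bacteria with antibiotic wells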
RecA splice inh: blocks M. tuberculosis RecA intein splicing; P9WHJ3; cell-free RecA intein splicing, fluorescence; inhibition, %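 (about 9 µM by stock and volumes)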; 0.75% of 290,000 active; AID 2221; in the data active = inhibition above about 30%; inconclusive = no clear call, values can overlap the other calls;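 also: 0% = vehicle wells and 100% = reference inhibitor control wells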
Target sequence (P9WHJ3 whole entry, looked up, canonical isoform): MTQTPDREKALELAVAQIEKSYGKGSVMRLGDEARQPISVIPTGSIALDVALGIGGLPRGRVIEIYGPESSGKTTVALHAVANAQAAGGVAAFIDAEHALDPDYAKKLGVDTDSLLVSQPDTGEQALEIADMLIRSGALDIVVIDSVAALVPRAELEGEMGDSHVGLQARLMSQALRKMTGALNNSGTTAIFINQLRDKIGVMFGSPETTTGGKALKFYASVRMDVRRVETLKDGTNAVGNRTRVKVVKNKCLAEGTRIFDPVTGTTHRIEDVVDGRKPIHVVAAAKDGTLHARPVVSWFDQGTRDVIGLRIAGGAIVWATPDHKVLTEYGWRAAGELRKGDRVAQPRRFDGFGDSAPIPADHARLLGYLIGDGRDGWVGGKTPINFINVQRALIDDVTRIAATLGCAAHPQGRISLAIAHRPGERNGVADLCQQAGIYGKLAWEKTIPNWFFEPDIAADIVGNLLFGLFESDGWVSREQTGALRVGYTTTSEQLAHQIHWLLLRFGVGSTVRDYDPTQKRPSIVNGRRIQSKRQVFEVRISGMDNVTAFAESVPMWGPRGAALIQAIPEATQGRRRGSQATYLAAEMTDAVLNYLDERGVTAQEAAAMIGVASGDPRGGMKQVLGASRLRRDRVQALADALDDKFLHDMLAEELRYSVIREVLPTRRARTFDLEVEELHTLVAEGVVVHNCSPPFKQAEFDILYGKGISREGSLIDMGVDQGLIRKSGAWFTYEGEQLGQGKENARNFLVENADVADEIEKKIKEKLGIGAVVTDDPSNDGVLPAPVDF
YopH PTP inh: YopH (Yersinia) phosphatase inhibition. fluorescence Ex485/Em525. inhibition, %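 (about 10 µM by stock and volumes)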. 0.16% of 140,000 active. AID 898;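 active = inhibition of 50% or more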;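 also: controls were vehicle for no effect and minimum signal wells for full effect; inactives centre near -20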
Arbovirus inh repeat: further read-out of Arbovirus inh, marked with its call; inhibition, %; measured here: 10K subset replicate screen; many hits read low in the repeat;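 first of two repeat runs on a subset; 0% = infected and 100% = uninfected wells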
Numbers without * were called inactive; ? = inconclusive; . = not tested or not shown; & = joins results of further samples.

SMILES	Arbovirus inh	Mtb bLac sens	Mtb growth	RecA splice inh	YopH PTP inh	others
Cc1cc(Cl)c(S(=O)(=O)N2CCN(c3ccccn3)CC2)cc1OCC(N)=O	-2	5	-6%	-0.6	.
Cc1ccc(S(=O)(=O)NCCSCc2ccco2)cc1	-3	5	4%	5.0	.
COc1ccc(N(C(C)C(=O)N/N=C/c2ccc(OC)c(OC)c2)S(C)(=O)=O)cc1 (stereo unspecified)	4	-5	1%	0.1	.
FC(F)(F)Oc1ccc(NC(=S)Nc2ccc(OC(F)(F)F)cc2)cc1	.	91	?	-2.3	.
Cc1ccc(NC(=O)CCNC(=O)Cn2cnc3ccccc3c2=O)cc1F	.	-7	.	2.7	.
COc1ccc(-n2cc3ccc([N+](=O)[O-])cc3n2)cc1	.	-8	.	27	.
COc1ccc(C(=O)Nn2c(C)nc3ccccc3c2=O)cc1	.	-7	.	-0.3	.
Cc1ccc(C(=O)C(=S)N2CCOCC2)cc1	-3	-4	5%	-4.5	-24
O=C(c1cccnc1)N1CCC(Oc2ccc(C(=O)N3CCCC(O)C3)cc2)CC1 (stereo unspecified)	3	4	2%	-0.8	.
COc1ccc(NC(=O)/C=C/c2ccc(Br)o2)cn1	-3	0	-3%	4.9	.
CC(C)CC(=O)NC(=S)Nc1ccccn1	-5	?	-3%	-5.1	-19
Clc1cccc2sc(N3CCCCC3)nc12	0	8	-2%	-0.2	0
O=C(CSc1nc2ccccc2c(=O)n1CC1CCCO1)NCC1CCCO1 (stereo unspecified)	5	-2	-6%	-2.0	-30
CCC(C)(C)NC(=O)CN(C(=O)CCC(=O)Nc1nccs1)c1ccc(C)cc1	.	-4	.	-1.8	.
CCN(CC)c1ccc(NC(=O)CSc2nc3ccccc3c(=O)n2-c2cc(S(=O)(=O)N(C)C)ccc2C)cc1	-3	-3	6%	6.5	-8
CC(C)n1c(N2CCN(CC(=O)NCc3cccs3)CC2)nc2ccccc21	1	3	-7%	2.7	-44
N=C1C(c2ccccc2)=C(O)CN1Cc1ccco1	1	-9	-2%	-0.5	-23
COc1ccc(CNC(=O)c2cc3cc(OC)ccc3oc2=O)cc1	.	-19	.	-9.2	.
COc1ccc(C2/C(=C(/O)c3ccccc3)C(=O)C(=O)N2c2ccccn2)cc1 (stereo unspecified)	.	3	.	-0.1	.
CCOC(=O)c1oc2ccccc2c1COC(=O)CNC(=O)c1ccc(C)cc1	.	-6	.	1.8	.
Cc1cc(F)ccc1NC(=O)CCc1c(C)nn(-c2ccc(N3CCCCC3)nn2)c1C	.	6	.	-1.9	.
CCOC(=O)c1c(C)[nH]c(C(=O)OCC(=O)N2CCN(S(=O)(=O)c3ccccc3)CC2)c1C	-2	14	2%	0.5	-25
COc1ccc(S(=O)(=O)Nc2ccc(S(=O)(=O)N3CCCCC3)cc2)cc1C	-2	5	-6%	1.5	-35
Cc1nnc(SCC(=O)N/N=C/c2ccc(-c3ccc(C)c(Cl)c3)o2)s1	-3	97	?	0.3	-25
CN(C(=O)CSc1nncn1-c1ccccc1)C1CCS(=O)(=O)C1 (stereo unspecified)	.	-13	.	-1.3	.

Arranged by molar mass (smallest number first): some entries from above
SMILES	Arbovirus inh	Mtb bLac sens	Mtb growth	RecA splice inh	YopH PTP inh	others
COc1ccc(NC(=O)/C=C/c2ccc(Br)o2)cn1	-3	0	-3%	4.9	.
Cc1ccc(NC(=O)CCNC(=O)Cn2cnc3ccccc3c2=O)cc1F	.	-7	.	2.7	.
CCOC(=O)c1oc2ccccc2c1COC(=O)CNC(=O)c1ccc(C)cc1	.	-6	.	1.8	.
O=C(CSc1nc2ccccc2c(=O)n1CC1CCCO1)NCC1CCCO1 (stereo unspecified)	5	-2	-6%	-2.0	-30
Cc1cc(Cl)c(S(=O)(=O)N2CCN(c3ccccn3)CC2)cc1OCC(N)=O	-2	5	-6%	-0.6	.
Cc1cc(F)ccc1NC(=O)CCc1c(C)nn(-c2ccc(N3CCCCC3)nn2)c1C	.	6	.	-1.9	.

Next part.
SMILES	Arbovirus inh	Mtb bLac sens	Mtb growth	RecA splice inh	YopH PTP inh	others
Cc1ccc(N2CC(C(=O)Nc3ccc(S(=O)(=O)Nc4nccc(C)n4)cc3)CC2=O)cc1 (stereo unspecified)	-6	-4	-13%	-2.2	.
Cn1c(=O)[nH]c(=O)c2c1nc(N1CCCCC1)n2CCSc1nc2ccccc2o1	8	4	-4%	-9.6	-4	Arbovirus inh repeat=-2
Nc1nnc(-c2cc3c(ccc4ccccc43)oc2=O)s1	-11	.	73%	.	.
O=C(NCc1ccccc1)Nc1cccn(Cc2cccc(F)c2)c1=O	-1	4	15%	-0.8	-22
O=C(CCCCCCCC(=O)NNC(=O)Nc1ccccc1)NNC(=O)Nc1ccccc1	-12	0	-9%	1.4	-16
CC(=O)Nc1nc(-c2ccccc2)nc(C)c1C(C)=O	2	-2	-8%	0.1	-10	Arbovirus inh repeat=-2
O=S(=O)(Nc1cccc(CO)c1)c1cccs1	.	-2	3%	2.9	.
O=C(NCc1ccc(Cl)cc1)C(=O)NCC(c1ccco1)N1CCOCC1 (stereo unspecified)	2	0	2%	-0.9	-27
COC(=O)C(NC(C)=O)(Nc1ccc(Br)cc1)C(=O)OC	-13	1	1%	1.1	-48
COc1ccc(-c2coc3cc4oc(=O)c5ccccc5c4cc23)cc1F	-29	-5	-5%	-9.9	-37
O=C(NNC(=S)NCc1ccc(Cl)cc1)c1ccc2c(c1)OCO2	0	7	-4%	0.5	.
COc1ccccc1NC(=O)CSc1nnc(C)n1Cc1ccccc1	7	-5	-8%	-0.8	-23
COc1ccc(-n2cc3c(-c4cccc(Br)c4)nnc(C)c3n2)cc1	-22	81	56%	14	-12
Cc1ccc(S(=O)(=O)NCC(=O)N(CC(=O)NC2CCCCC2)Cc2ccco2)cc1	-3	-6	7%	2.7	9
NCCc1cnc[nH]1	5&-2	3&2	-10%&-8%	-0.3&-1.8	-55&-39
O=C(c1ccc2c(c1)OCO2)C1CCCN(Cc2cccc(C(F)(F)F)c2)C1 (stereo unspecified)	.	-5	.	12	.
COCC(C)NC(=O)c1ccccc1[N+](=O)[O-] (stereo unspecified)	0	-8	-9%	0.5	-18
CCCCCCNCc1c(F)cccc1Cl	-6	4	-4%	-3.5	-25
COc1ccc(S(=O)(=O)N/N=C(/C)c2ccncc2)cc1OC	.	1	.	0.5	.
CC(=O)c1c(C)[nH]c(C(=O)COC(=O)CCOc2ccc(C)cc2)c1C	.	27	.	1.9	.
Cc1c(Cl)ccc2c(C(N)=O)cc(-c3ccccn3)nc12	0	0	4%	7.5	.
COc1ccccc1N1CCN(C2CCCN(S(=O)(=O)c3cccc(Cl)c3)C2)CC1 (stereo unspecified)	.	?	.	3.5	.
COc1ccc2[nH]c3c(=O)n(Cc4ccncc4)cnc3c2c1	.	-2	1%	-0.3	.
Cn1c(=O)c2c(nc(SCCN3CCCCC3)n2Cc2ccccc2)n(C)c1=O	-3	2	-3%	0.8	-40
O=C(Nc1ccc(S(=O)(=O)NC2=NCCCCC2)cc1)c1ccc2ccccc2n1	-2	15	3%	0.2	.
(cont.)
SMILES	Arbovirus inh	Mtb bLac sens	Mtb growth	RecA splice inh	YopH PTP inh	others
COc1ccc(/C=N/NC(=O)c2cccnc2)cc1COc1ccc([N+](=O)[O-])c(C)c1	.	13	2%	3.4	.
CCCOC(=O)C[N+](C)(C)CCOC1CC2CCC1(C)C2(C)C (stereo unspecified)	.	-2	4%	-0.9	.
CCCCn1c(-c2ccco2)nc2ccccc2c1=O	2	0	4%	4.5	-4
Cn1c(SCc2ccc(Cl)cc2)nc(C(F)(F)F)cc1=O	10	-1	8%	.	-25
COc1ccc(C(=O)NCC(=O)Nc2cccc(S(=O)(=O)NCc3ccco3)c2)cc1OC	9	-3	8%	-1.2	.
O=C(NCC1COc2ccccc2O1)c1cn(Cc2ccc(F)cc2)nn1 (stereo unspecified)	-9	0	12%	-1.8	-32
O=C(N/N=C/c1cccnc1)c1cc2ccccc2cc1O	.	1	.	-7.7	.
O=C1c2cc(O)cc(O)c2C(=O)c2c1cc(O)c([C@@H](CO)CCO)c2O	.	-2	0%	2.2	.
CC(=O)NNC(=O)c1csc(-c2csc(C)n2)n1	.	2	5%	0.6	.
Cc1noc(C(=O)NC2CCCCC2)c1Cl	.	0	-5%	6.1	.
O=C(CN(CC1CCCO1)C(=O)c1nsc(Cl)c1Cl)NC1CCCC1 (stereo unspecified)	4	-3	-4%	.	.
CC(=O)c1cccc(NC(=S)NC2CCCCCCC2)c1	.	96	.	1.6	.
COc1ccc(/C=N/NC(=O)c2ccccc2)cc1OS(=O)(=O)c1ccccc1	-17	2	3%	3.8	-25
CCOC(=O)c1cc(-c2ccc(OC)cc2)nn1-c1ccc(C(=O)O)cc1	9	-4	-13%	0.7	.
O=[N+]([O-])c1cc([N+](=O)[O-])c(Oc2cncc(Cl)c2)cc1NN1CCCCC1	.	5	.	1.1	.
Cc1cccc(-c2nc(Nc3ccc(O)cc3)c3ccccc3n2)c1	.	18	.	21	.
Cc1oc(C)c(S(=O)(=O)NCc2cccs2)c1C(=O)O	.	1	2%	0.1	.
CSc1ncc(Cl)c(C(=O)Nc2cccc(Cl)c2)n1	.	-3	.	3.5	.
CC1CCCC(NC(=O)NC(=O)CCl)C1C (stereo unspecified)	5	99	6%	48*	-22
COc1cc(NC(=S)N2CCCC(CO)C2)c(OC)cc1Cl (stereo unspecified)	2	-7	4%	0.7	5
Cc1c(Cc2ccccc2)c(NCCN(C)C)n2c(nc3ccccc32)c1C#N	.	-2	-2%	-62	.
COc1ccccc1-c1nnc(NC(=O)C(C)C)s1	-15	17	-9%	-0.8	-11
CCS(=O)(=O)N1CCN=C1SCc1cccnc1	2	0	2%	-1.4	.
CCCCCCCNC(=O)CN1C(=O)CSc2ccc(S(=O)(=O)N3CCOCC3)cc21	.	1	.	1.8	.
COc1ccc(N2CCN(CCNC(=O)Nc3cc(Cl)ccc3OC)CC2)cc1	.	4	.	-0.1	.
(further entries)
SMILES	Arbovirus inh	Mtb bLac sens	Mtb growth	RecA splice inh	YopH PTP inh	others
CCn1cc(Cl)c(C(=O)Nc2ccccc2C(N)=O)n1	-1	-2	-6%	-4.0	.
O=C(NC1CCCc2ccccc21)c1ccccn1 (stereo unspecified)	.	0	.	0.1	.
Cc1ccccc1-n1ncc2c1CC(C)(C)CC2NC(=O)C1CCC1 (stereo unspecified)	.	8	.	0.9	.
O=C(CCc1ccccc1)NCCc1ccc(F)cc1	.	-6	.	0.4	.
O=C(Cn1cnc2ccccc2c1=O)N(Cc1ccco1)c1ccc(O)cc1	7	10	-1%	0.4	-26	Arbovirus inh repeat=-4
CCN(CC)P(=O)(/C=C(\Cl)c1ccccc1)/C=C(\Cl)c1ccccc1	-31	-7	9%	2.2	.
CCOC(=O)c1ccc(NS(=O)(=O)c2cccc3nsnc23)cc1	10	-14	-4%	-0.3	-42
COc1ccc(N=C2C(=Nc3ccc(OC)cc3)N(c3ccccc3)C(=S)N2C(=O)c2ccc(Cl)cc2)cc1	-7	4	17%	0.5	-6
COCc1[nH]nc2c1C1(C(=O)Nc3ccc(F)cc31)C(C#N)=C(N)O2 (stereo unspecified)	-4	-6	7%	2.6	-32
COc1ccc(C(=O)O/N=C(\N)Cc2cccs2)cc1OC	.	1	.	5.5	.
CCOC(=O)C1CCN(C(=O)CN2C(=O)C(C(C)C)Oc3ccccc32)CC1 (stereo unspecified)	.	0	.	-8.0	.
Cc1ccc(C(=O)NCc2ccc3c(c2)CCO3)cc1C	.	-1	-3%	1.6	.
CCOC(=O)c1c(C)n(C)c2ccc(OC)c(NC(=O)c3cccs3)c12	3	?	0%	-0.4	-29
Cc1cccc(NC(=O)CNC(=O)COc2ccc(C(=O)c3ccc(F)cc3)cc2)c1C	-15	0	7%	-4.3	-28
COCCCn1c(=O)/c(=C\c2ccccc2OC(C)C)s/c1=C(/C#N)C(=O)Nc1ccc(C(=O)O)cc1	.	.	9%	-9.7	.
Cn1nnnc1SCCNS(=O)(=O)c1ccccc1	5	-5	-4%	-3.3	-55
COc1ccc(CC(NC(C)=O)C(=O)NC2CCN(C(=O)c3ccc([N+](=O)[O-])cc3)CC2)cc1OC (stereo unspecified)	.	-1	-4%	-3.6	.
COC(=O)C1=C(C(=O)OC)SC2(S1)C(C(=O)OC)=C(C(=O)OC)SC1=C2c2cc(C)cc(C)c2NC1(C)C	-5	14	7%	-2.2	0
O=C(Nc1ccnn1C1CCN(C(=O)c2cccc(Cl)c2)CC1)C1CC1	.	-6	.	-2.6	.
O=C1CCCN1c1ccc(S(=O)(=O)NCCOc2ccccc2)cc1	17	-3	?	3.5	-16
Cc1cc(C)c(-c2c(O)c3cnn(-c4ccccc4)c3[nH]c2=O)c(C)c1	16	26	1%	-10	-20
Nc1nnc(CCS(=O)(=O)c2ccc(Br)cc2)s1	2	-5	1%	.	.
N#Cc1c(N)oc(-c2ccccc2)c1-c1ccccc1	2	-6	1%	2.6	-26

A portion of the library (hit frequency here may not be typical).
